Assay outcomes (PubChem)
SARS PLpro yeast: qHTS of Yeast-based Assay for SARS-CoV PLP | S. cerevisiae expressing SARS-CoV PLpro, growth rescue; control for the full effect not named in the record | Potency, µM (doses to about 32.9 µM), without a hit: at the highest dose activity, positive = growth rescue | actives 0.19% (n = 330,000) | AID 485353, 2010; active means well fitted rising curve with a large enough effect; inconclusive means small, poorly fitted or top-dose-only effect; inactive means no such curve, though single readings can be large or run the other way; also: 0% is about no effect; nearly all actives have a fitted effect of over 55% in size; growth read by luminescence after 48 h
RE007 growth inh: qHTS Assay for Inhibitors of the HIV-1 protein Vpr. S. pombe RE007 Vpr strain, BacTiter-Glo ATP luminescence, 24 h; control for the full effect not named in the record. Potency, µM (titrated, usually from 92.2 µM), for the others: top-dose activity change, negative = less growth. actives 0.21% (n = 360,000). AID 651644, 2012; active = well fitted falling curve with a large enough effect; inconclusive = small, poorly fitted or top-dose-only effect; inactive = no such curve, though single readings can be large or run the other way;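 also: % is scaled to controls: 0 for no effect and ±100 for the full control effect; nearly all actives have a fitted effect of over 50% in size; the assay follows cell death caused by Vpr and the record does not say whether a fall means rescue or toxicity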
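Fission yeast strain RE007, carrying one chromosomally integrated HIV-1 vpr copy, was seeded at OD 0.01 in PMG+AL medium with 23 nL pinned compound. After 24 h at 30 °C and 99% humidity, viability was read by BacTiter-Glo luminescence.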
StopGo reporter: High Throughput Screening for Foot and Mouth Disease Virus Antivirals | human cells with a luciferase reporter of 2A StopGo recoding; control for the full effect not named in the record | Potency, µM (top dose mostly 57.9 µM), inactives show at the highest dose signal change, negative = less light | actives 1.2% (n = 410,000); active = well fitted falling curve with a large enough effect; inconclusive = small, poorly fitted or top-dose-only effect; inactive = no such curve, though single readings can be large or run the other way; tested in HEK293T cells; also: % is scaled to controls: 0 for no effect and ±100 for the full control effect; nearly all actives have a fitted effect of over 45% in size; luciferase light after 4 h
Starred values were filed as active, the others as inactive; ? = inconclusive; [ ] = dose if it differs, or a comment. Potency is read from the fitted curve at half-maximal effect. Some of the compounds tested; count on the stated rates, not on these rows.

Preview:
SMILES	SARS PLpro yeast	RE007 growth inh	StopGo reporter
C[C@]12c3[nH]c4ccccc4c3CCN1C(=O)C(CC(=O)NCCc1ccccn1)C[C@@H]2C(=O)N1CCOCC1 (some centres not stated)	3%	2%	-18%
COc1cc(C(=O)NCC(=O)OCc2ccc(F)cc2)cc(OC)c1OC	1%	-6%	0%
COc1ccc(NC(=O)CNc2cc(S(=O)(=O)N3CCOCC3)ccc2N2CCOCC2)c(OC)c1	-31%	-8%	11%

The listing (from the top)
SMILES	SARS PLpro yeast	RE007 growth inh	StopGo reporter
C[C@]12c3[nH]c4ccccc4c3CCN1C(=O)C(CC(=O)NCCc1ccccn1)C[C@@H]2C(=O)N1CCOCC1 (some centres not stated)	3%	2%	-18%
COc1cc(C(=O)NCC(=O)OCc2ccc(F)cc2)cc(OC)c1OC	1%	-6%	0%
COc1ccc(NC(=O)CNc2cc(S(=O)(=O)N3CCOCC3)ccc2N2CCOCC2)c(OC)c1	-31%	-8%	11%
COc1cc(OC)cc(C(=O)OCC(=O)NC2CCCCCC2)c1	-3%	-7%	-12%
CC(C)n1ncc2c(C(=O)Nc3cccc(C#N)c3)cc(C3CC3)nc21	7%	1%	?
O=S(=O)(c1ccccc1)[C@@]1(c2ccc(Br)cc2)C[C@@H]2ON=C(c3cccc(Br)c3)[C@@H]2C1	-2%	6%	-28%
COc1ccc(-c2c(-c3ccccc3OC)oc3ccccc23)cc1F	0%	-1%	24%
O=C(N/N=C/c1ccccc1C(=O)O)c1cccc(S(=O)(=O)N2CCCCC2)c1	9%	-9%	-7%
Cc1ccc(/C=N/c2sc3c(c2C(N)=O)CCCC3)o1	0%	?	69%[activator]
O=C(CCNS(=O)(=O)c1ccc(F)c(F)c1)NCCN1CCOCC1	8%	9%	3%
O=C([C@@H]1CCCN1C(=O)c1cccs1)N1CCN(S(=O)(=O)c2ccccc2F)CC1	3%	1%	-8%
CC(C)C(NC(=O)c1ccccc1)C(=O)OCC(=O)N1CCCC1 (configuration not stated)	1%	0%	-7%
COc1cc2c(cc1OC)[C@@H](NC(=O)CCc1ccccc1)[C@H](O)C2	-4%	-10%	-22%
CN(Cc1ccccc1)C(=O)c1nc[nH]c1C(=O)N1CCN(c2ccccc2)CC1	-1%	19%	-6%
O=C(NNC(=O)c1ccccc1Cl)c1ccc2c(=O)n3c(nc2c1)CCC3	3%	2%	16%
N#Cc1ccc(C2=CC(=O)C[C@H](c3ccc(F)cc3)C2)cc1	-1%	-3%	-9%
Cn1c(-c2ccsc2)c(-c2cccs2)c2cc(-c3ccc4[nH]ccc4c3)ccc21	-3%	5%	24%
c1ccc(-c2ccccc2OCc2nnc3n2CCC3)cc1	2%	-6%	-16%
CC(NC(=O)C(c1ccccc1)c1ccccc1)C(=O)N1CCCCC1 (configuration not stated)	4%	4%	-6%
O=C(Cn1cnc2c(OCc3ccccc3)ncnc21)NCc1nc2ccccc2[nH]1	-5%	-3%	-27%
O=C(Cn1c(=O)oc2ccccc21)N1CCN(S(=O)(=O)c2ccccc2)CC1	0%	-4%	-5%
CCOC(=O)C1CCN(C(=O)c2cc(-c3ccncc3)nc3ccccc23)CC1	-1%	-10%	-20%
Cc1ccc(S(=O)(=O)N2CCN(C(=O)c3cc(C4CC4)nc4c3cnn4C(C)C)CC2)cc1	4%	-15%	-28%
C=CCN(CC(=O)NC1CC1)S(=O)(=O)c1cccc(C(F)(F)F)c1	-5%	-16%	-8%
COc1ccc(S(=O)(=O)Nc2ccc3c(c2)C(=O)N([C@H](C)CO)C[C@H](C)[C@H](CN(C)Cc2ccc(C(=O)O)cc2)O3)cc1	-1%	0%	0%
SMILES	SARS PLpro yeast	RE007 growth inh	StopGo reporter
CN(C(=O)COC(=O)c1cc2ccccc2oc1=O)C1CCCCC1	0%	3%	1%
CCCC[C@@H]1C=C(C(=O)O)[C@H](c2ccc(C)cc2)N1S(=O)(=O)c1ccc(C)cc1	1%	-1%	1%
CCOC(=O)CC[C@H](NC(=O)Cn1cnc2c(OCc3ccccc3)ncnc21)C(=O)OCC	-1%	-5%	-16%
CC(=O)c1nnn(-c2ccc([N+](=O)[O-])cc2)c1C	1%	10%	?
COc1ccc(NC(=O)CN(C)C(=O)c2cc3c(s2)CCC3)cc1	7%	11%	10%
Fc1ccc2cnc(-c3ccccc3F)cc2c1	-22%	-7%	37%[activator]
Cc1c(N=C2N=C(NC(=O)NC(C)(C)C)c3ccccc32)c(=O)n(-c2ccccc2)n1C	0%	-5%	-27%
COc1ccc(S(=O)(=O)N(C)C)cc1NC(=O)c1ccc2c(c1)NC(=O)C(C)S2 (configuration not stated)	-5%	1%	-20%
O=C(COC(=O)c1ccc(S(=O)(=O)N2CCCCCC2)cc1)NCc1ccc(Cl)cc1	2%	9%	-7%
O=C(Nc1ccon1)c1nc[nH]c1C(=O)N1CCc2ccccc2C1	1%	13%	-9%
Cc1ccccc1/C=C1\Oc2ccccc2C1=O	-14%	-29%	76%[activator]
COc1cc(C(NC(C)=O)NC(C)=O)ccc1OCc1ccccc1	-1%	4%	1%
O=C(C[n+]1cccc2ccccc21)c1ccc(NC(=O)c2ccccc2)cc1	1%	-9%	-23%
Cc1c(C(=O)OCC(=O)N(C)Cc2ccc(Cl)cc2)oc2ccccc12	4%	2%	-22%
CC(C)(C)OC(=O)CNC(=O)c1nc[nH]c1C(=O)N1CCNCC1	2%	3%	4%
Cc1sc2nc(CN3CCOCC3)[nH]c(=S)c2c1C	1%	-5%	-2%
COc1ccc2nc(SC(C)C(=O)NC3(C#N)CCCCC3)[nH]c2c1 (configuration not stated)	-4%	1%	-28%
COc1cc(CCC(=O)Nc2ccc(S(=O)(=O)N3CCCC3)cc2)cc(OC)c1OC	-6%	-10%	-22%
CC1CCN(C(=O)c2ccc(S(=O)(=O)N3CCCC3)cc2)CC1	2%	0%	-10%
CCCCn1c(N)c(N(CCOC)C(=O)CCC2CCCCC2)c(=O)[nH]c1=O	6%	23%	-18%
CCN1C(=O)[C@H]2[C@@H](c3ccc(-c4ccc(OC)cc4)c(OC)c3)N[C@@](C)(C(=O)OC)[C@H]2C1=O	-3%	10%	3%
Cc1ccccc1Nc1nc(N)nc(COC(=O)/C=C/c2ccco2)n1	0%	3%	3%
COc1cc(OC)cc(C(=O)NNC(=O)Cc2cccs2)c1	2%	0%	-4%
COC(=O)[C@H](Cc1ccc(O)cc1)NC(=O)Cn1ccc(NC(=O)OCc2ccccc2)nc1=O	3%	14%	-9%
C[C@@H]1CN([C@H](C)CO)C(=O)c2cccc(NC(=O)Nc3ccc(F)cc3)c2O[C@H]1CN(C)C(=O)Nc1ccc(C(F)(F)F)cc1	5%	-14%	?

Fetched by structure from above:
SMILES	SARS PLpro yeast	RE007 growth inh	StopGo reporter
O=C(C[n+]1cccc2ccccc21)c1ccc(NC(=O)c2ccccc2)cc1	1%	-9%	-23%
COc1cc(OC)cc(C(=O)OCC(=O)NC2CCCCCC2)c1	-3%	-7%	-12%

Next structures
SMILES	SARS PLpro yeast	RE007 growth inh	StopGo reporter
O=C(Cc1ccccc1[N+](=O)[O-])OCC(=O)c1ccccc1Br	-12%	-7%	39%[activator]
O=C(NCc1ccccc1)c1onc(CS(=O)(=O)c2ccc(Cl)cc2)c1C(=O)NCc1ccccc1	-1%	-18%	-11%
O=C(Nc1cc(S(=O)(=O)N2CCOCC2)ccc1N1CCCC1)c1ccc(F)cc1	1%	-14%	-19%
Cn1cccc1C(=O)OCC(=O)N1c2ccccc2NC(=O)C1(C)C	2%	5%	-8%
Cc1cc(C)n(-c2ccc(C(=O)OCC(=O)Nc3ccccc3F)cc2)n1	-2%	-24%	-12%
Cc1ccc2cccc(OCC(=O)N(C)CC(=O)Nc3ccc(F)cc3)c2n1	-5%	-5%	-6%
COc1ccccc1N1CC(C(=O)OCc2nc(N)nc(Nc3ccccc3)n2)CC1=O (configuration not stated)	-1%	-17%	-12%
O=C(COC(=O)COc1ccc(Cl)cc1)Nc1ccc2c(c1)OCCO2	-1%	-10%	-5%
CC(C)C[C@@H](CNC(=O)OC(C)(C)C)NC(=O)c1nc[nH]c1C(=O)N[C@@H](CC(C)C)C(=O)CNC[C@H](CC(C)C)NC(=O)c1nc[nH]c1C(=O)N[C@@H](Cc1c[nH]c2ccccc12)C(=O)OC(C)(C)C	-14%	-2%	-5%
COc1cc(OC)cc(-c2c(C#Cc3ccsc3)c3cc(-c4ccccc4OC)ccc3n2C)c1	-9%	-4%	0%
O=C(Cn1cnc2ccccc21)Nc1cccc(S(=O)(=O)N2CCCC2)c1	13%	1%	?
COc1ccc(OC)c(S(=O)(=O)Nc2c(C)nn(C)c2C)c1	0%	-13%	1%
COc1ccc(S(=O)(=O)N2CCOCC2)cc1NC(=O)CSc1nnc(C2CC2)n1C	-7%	4%	-4%
O=C(COc1ccccc1Cl)N1N=C(c2cccs2)CC1c1ccco1 (configuration not stated)	9%	-8%	-11%
COc1cc2sc3cc(NCc4ccc5c(c4)OCO5)ccc3c(=O)c2cc1OC	-2%	4%	14%
CCOC(=O)c1c[nH]c2nc(C)ccc2c1=O	8%	-5%	9%
CCN(C[C@H]1N[C@@](CC)(C(=O)OC)[C@H]2C(=O)N(C)C(=O)[C@@H]12)C(=O)Nc1ccc(C)cc1	-3%	7%	0%
COCCN1Cc2cc3cc(C)ccc3nc2SC1=Nc1cccc(OC)c1	-2%	6%	-14%
Cc1cc(C)c(S(=O)(=O)N2CCN(C(=O)c3c(C)noc3C)CC2)c(C)c1	9%	19%	-11%
COc1ccccc1C(=O)NCCC(=O)Nc1ccc(S(=O)(=O)N2CC(C)CC(C)C2)cc1 (configuration not stated)	-2%	3%	11%
C[C@@H]1CN([C@H](C)CO)C(=O)c2cc(NC(=O)Nc3ccc(F)cc3)ccc2O[C@H]1CN(C)C(=O)Nc1ccc(C(F)(F)F)cc1	15%	13%	-14%
O=C(NCCc1ccccc1)c1ccc2c(c1)S(=O)(=O)c1cc(Cl)ccc1C2=O	2%	-1%	-17%

Another view of part of the listing above:
Compound | SARS PLpro yeast | RE007 growth inh | StopGo reporter
O=C(Cc1ccccc1[N+](=O)[O-])OCC(=O)c1ccccc1Br | -12% | -7% | 39%[activator]
O=C(NCc1ccccc1)c1onc(CS(=O)(=O)c2ccc(Cl)cc2)c1C(=O)NCc1ccccc1 | -1% | -18% | -11%
O=C(Nc1cc(S(=O)(=O)N2CCOCC2)ccc1N1CCCC1)c1ccc(F)cc1 | 1% | -14% | -19%
Cn1cccc1C(=O)OCC(=O)N1c2ccccc2NC(=O)C1(C)C | 2% | 5% | -8%
Cc1cc(C)n(-c2ccc(C(=O)OCC(=O)Nc3ccccc3F)cc2)n1 | -2% | -24% | -12%
Cc1ccc2cccc(OCC(=O)N(C)CC(=O)Nc3ccc(F)cc3)c2n1 | -5% | -5% | -6%
COc1ccccc1N1CC(C(=O)OCc2nc(N)nc(Nc3ccccc3)n2)CC1=O (configuration not stated) | -1% | -17% | -12%
